S aureus helic: S. aureus DNA helicase inhibition. 120,000 tested, 0.05% active. inhibition, %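 (tested at about 80 µM)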. AID 485395. purified S. aureus helicase, fluorescence unwinding assay; about half of the hits fall short of the stated cut;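 active = both duplicates at 50% or more, or one of them with a favoured structure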;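 also: 0% = mean of negative control wells and 100% = mean of positive control wells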
MgrA-DNA mod: modulators of Staphylococcus aureus MgrA DNA binding; fluorescence polarization; AID 602314; inhibition, %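 (about 10 µg/mL by stock and volumes)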; 84,000 tested, 0.13% active;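 active = above 50% in either of two replicates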;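 also: 0% = protein plus DNA without compound and 100% = DNA alone without protein; higher means less MgrA bound to DNA so lower polarization; one replicate is shown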
An asterisk follows results filed as active; . = not tested or not shown; & = joins results of further samples. A portion of the library. The share of hits here may be higher or lower than overall.

S aureus helic	MgrA-DNA mod	mol
-73	60*	COC(=O)C1=C(C)N2[C@@H](C=C1)[C@@](C#N)(C(N)=O)[C@@H](c1ccccc1)[C@@H]2C(=O)OC
-4	-0.5	CC(C)(C)NC(=O)Cc1ccccc1
0	.	Nc1ccc(C(=O)NCC2CCCO2)cc1 (stereo not drawn)
8	.	CCCCN1C(=O)CCC(C(=O)O)C1c1ccccc1OC (stereo not drawn)
15	0.3	Cc1nc2ccc(C(F)(F)F)cc2n1CCc1ccccc1
11	.	Nc1nc(N2CCCCC2)ncc1F
.	4.6	C/C(=N\NC(N)=S)c1ccc(Cl)c(Cl)c1
-15	.	CC1(C)CC(=O)CC(=Nc2ccccc2N)C1
8	-1.1	Cc1cc(C(F)(F)F)n2nc(C(N)=O)cc2n1
-4	.	Cc1sc(/N=C\c2ccccc2Cl)c(C#N)c1C
-7	5.2	CC1CCCCN1C(=O)CN1C(=O)c2ccccc2C1=O (stereo not drawn)
5	16	Nc1cc(=O)nc(SCc2ccccc2)n1Cc1ccco1
6	.	CCOc1ccc(Nc2ccc(S(=O)(=O)N3CCOCC3)cn2)cc1
12	-3.8	N#Cc1cc(C#N)c(SCCN2CCOCC2)nc1N
-1	0.4	Nc1nnnn1/N=C1/C(=O)Nc2ccc(Br)cc21
-6	.	CCN1C(=O)/C(=N\N2CCN(C)CC2)c2ccccc21
15	.	O=c1c(Oc2ccccc2)c(C(F)(F)F)oc2c3c(ccc12)OCO3
-9	.	CN(c1ccccc1C(=O)NCCc1ccccc1)S(C)(=O)=O
.	-0.4	CCSc1nc(-c2ccc(Cl)cc2)[nH]c(=O)n1
7	-5.3	CN1CCC(N(C)C2CCN(Cc3ccccc3)CC2)CC1

Next compounds
S aureus helic	MgrA-DNA mod	mol
.	2.4	O=C(CSc1nccc(-c2cc(-c3ccccc3)no2)n1)Nc1ccc(Cl)cc1
.	-2.0	O=S(=O)(c1sc(Br)cc1Br)N1CCCC1
6	-0.8	NC(=O)COC(=O)c1ccc(F)cc1Cl
12	-2.2	O=C1CC(c2ccccc2)NC(=S)N1 (stereo not drawn)
-11	.	CCNC(=S)N/N=C/c1c(F)cccc1F
-14	-1.4	Cc1ccc(C(=O)OCC(=O)N2CCC(Cc3ccccc3)CC2)cc1N
21	-0.6	COc1ccccc1-c1coc2c(CN(C)C3CCCCC3)c(O)ccc2c1=O
9	.	N/C(=N\O)c1cccc(C(=O)O)c1
.	1.6	N#C/C(N)=C(\C#N)NCc1c(F)cccc1Cl
-1	.	C=CCc1cc(C)ccc1OCCNC(C)C
5	-2.7	COc1ccccc1N1CCN(C(=O)CCCC(=O)O)CC1
-4	0.3	Cc1ccc(S(=O)(=O)NCCSc2nnc3nc(C)cc(C)n23)cc1
3	1.1	CC1CN(C(=O)CCC(=O)N2CCN(c3ccccn3)CC2)c2ccccc2O1 (stereo not drawn)
12	4.2	O=C(CN1C(=O)S/C(=C\C=C\c2ccccc2)C1=O)Nc1cccc(O)c1
0	10	CC(C)NC(=O)CC1Oc2ccc(Cl)cc2NC1=O (stereo not drawn)
3	1.6	Cc1oc(/N=C/c2ccccc2)c(C#N)c1C
.	0.1	O=C1NCCCCC1NS(=O)(=O)c1ccc(Cl)cc1 (stereo not drawn)
.	-1.2	O=C(NCCCn1ccnc1)c1cc(C(=O)C2CCCCC2)c[nH]1
-10	.	O=C1CSCC(=O)N1c1cc(C(F)(F)F)cc(C(F)(F)F)c1
.	1.1	O=C(Nc1ccccc1)Sc1ccccc1Cl

Going on with the list:
S aureus helic	MgrA-DNA mod	mol
10	.	CCC(=O)N1CCc2cc(S(=O)(=O)CCC(=O)Nc3cccc(C)c3)ccc21
8	3.7	COc1ccc(CN(C)C(=O)COc2ccccc2)cc1
0	4.9	COCCn1c(C23CC4CC(CC(C4)C2)C3)n[nH]c1=S
.	-2.5	CC(O)(CS(=O)(=O)Cc1ccc(Cl)cc1)C(=O)Nc1ccc(Cl)cc1 (stereo not drawn)
2	-0.7	O=C(OCCN1CCCCC1)c1cccc(COc2ccc3ccccc3c2)c1
11	.	O=C(O)CC(C(=O)O)C(O)c1ccccc1 (stereo not drawn)
21	-1.9	COc1cc(OC)cc(C(=O)Nc2ccc(OCC(=O)O)cc2)c1
31	.	COC(=O)C1=C(C)N(CC2CCCO2)C(=O)/C1=C/c1ccc(CNS(=O)(=O)c2ccc(Cl)cc2)o1 (stereo not drawn)
7	.	CC(C)NC(=O)c1ccc(CS(=O)Cc2ccc(Cl)cc2)o1 (stereo not drawn)
-4	.	O=C(Cn1cncn1)Nc1c(Cl)cc(Cl)cc1Cl
8	-0.3	Cc1cc(Oc2ccccc2)nc(OCC#N)n1
2	.	OC(CNCc1ccco1)COc1ccc(OCC(O)CNCc2ccco2)cc1 (stereo not drawn)
-12	.	O=C1c2ccccc2NC(c2ccccn2)N1c1ccc(Cl)cc1 (stereo not drawn)
-2	-0.8	Cc1ccc(C(=O)COC(=O)c2ccc(-n3cnnn3)cc2)c(C)c1 (tested in a mixture with another compound)
5	0.9	COc1ccccc1NC(=O)CCC1COc2ccccc2O1 (stereo not drawn)
11	.	Cc1ccnc2nc(C(=O)N3C(=NCc4ccccc4)SCC3(C)C)nn12
8	0.6	O=C(COc1ccc(/C=c2/sc3nc4ccccc4n3c2=O)cc1)N1CCCC1
-2	.	CCOC(=O)C1CCCN(c2ncnc3[nH]ncc23)C1 (stereo not drawn)
0	2.2	CCN1C(=O)/C(=C\c2cccc3c2-c2ccccc2C3=O)OC1=S
.	3.5	N/C(Cc1ccc([N+](=O)[O-])cc1)=N\O

Continuation:
S aureus helic	MgrA-DNA mod	mol
.	-1.3	O=C(NC1CCCCNC1=O)c1ccco1 (stereo not drawn)
.	-2.2	Cc1noc(C)c1S(=O)(=O)N(C(C)C)C(C)C
.	0.4	O=C(Nc1ccccc1-c1nc2ccccc2[nH]1)c1cc([N+](=O)[O-])c(N2CCOCC2)c([N+](=O)[O-])c1
-1	-0.2	CC1(C)Cc2nc(N)c(C#N)cc2CO1
19	-0.8	CC(NC(=O)c1ccncc1)C(c1cccs1)N1CCN(Cc2ccccc2)CC1 (stereo not drawn)
22	1.1	Cc1noc(C)c1C(=O)Nc1ccc(S(=O)(=O)N2CCCc3ccccc32)cc1
12	.	O=C(NCc1ccccc1)c1cccc(S(=O)(=O)N2CCCC2)c1
10	0.6	Cc1cc(C)cc(NC(=S)N(CCCN2CCOCC2)C(C)c2cc3ccccc3o2)c1 (stereo not drawn)
.	-2.5	O=S1(=O)CCN(Cc2ccc(NS(=O)(=O)c3ccc(Cl)cc3)cc2)CC1
7	1.7	CCN1C(=O)C(CC(=O)Nc2ccc(F)cc2)N(CCc2ccccc2)C1=S (stereo not drawn)
-12	.	CCn1c(=O)[nH]c(=O)c2c(C(F)(F)F)cc(-c3ccc(C)cc3)nc21
6	-0.6	Cn1c(=NC(=O)c2ccc(F)cc2)sc2ccccc21
1	.	CSC(=NCc1ccco1)Nc1cc(-c2ccccc2)[nH]n1
.	-2.0	O=C(COc1ncnc2cc(Cl)ccc12)c1ccc2c(c1)OCCCO2
.	1.5	COc1ccc(N(Cc2ccccc2)Cc2ccccc2)cc1
16	5.5	Cc1cccc(-n2c(C)cc(C(=S)N3CCOCC3)c2C)c1C
18	.	O=C(OC1CCOC1=O)c1ccc2c(c1)C(=O)N(Cc1ccccc1)C2=O (stereo not drawn)
-18	1.3	O=C(Nc1cccc2ccccc12)NC1CC1
5	-0.3	O=C(c1ccc(Cn2c(=O)[nH]c3ccsc3c2=O)cc1)N1CCCCC1
.	4.8	CCN(CC)c1ccc(/C=C2\C(=O)N(c3nc(-c4ccccc4O)cs3)N=C2C)cc1

Remaining list, next part
S aureus helic	MgrA-DNA mod	mol
.	-0.8	O=C(O)c1ccccc1S(=O)(=O)Nc1cccnc1
-9	.	O=C(Oc1ccc(-c2nnco2)cc1)c1cc2c(s1)CCCC2
9	.	O=c1c2c3c(sc2nc2ccc(N4CCCCC4)nn12)CCCC3
.	-2.5	CCSCCOC(=O)C1=C(C)NC2=C(C(=O)CC(c3ccccc3)C2)C1c1cccc(OC)c1OC (stereo not drawn)
1	-1.2	COc1ccc(Cl)cc1NN
-5	.	CCOc1cc(C(=O)OCCN2C(=O)c3ccccc3C2=O)ccc1OCC(=O)N1CCCCC1
.	-0.7	Cc1c(-c2csc(-c3ccc(Cl)cc3)n2)sc2ccc(Cl)cc12
5	2.5	CC1(C)CC(=O)c2cc(C(=O)NCCC3=CCCCC3)c(=O)n(-c3ccccc3)c2C1
.	-1.6	COCCOC(=O)C1=C(C)NC2=C(C(=O)CC(c3ccc(Cl)cc3)C2)C1c1ccc(OC(C)=O)cc1 (stereo not drawn)
2	1.6	Cc1ccc(C2CC(=O)C(C=NCCN3CCNCC3)=C(O)C2)cc1 (stereo not drawn)
20	.	COc1ccc(C2C(C(=O)NCCCN3CCN(C)CC3)c3ccccc3C(=O)N2Cc2ccc(F)cc2)cc1 (stereo not drawn)
16	.	O=c1c2ccccc2sn1-c1nc2ccccc2s1
-9	.	CCCC1(CCC)NC(=O)N(Cc2ccc(-c3ccc(Br)cc3)o2)C1=O
.	-3.4	N#Cc1cccc(S(N)(=O)=O)c1
8	-1.9	COc1ccc(CN2C(=O)CC(C(=O)O)SC2=Nc2ccccc2)cc1 (stereo not drawn)
.	-1.1	N#CCCn1cc(Cl)c(=O)c(Cl)c1
-6	.	C/C(=C(/C#N)P(=O)(c1ccccc1)c1ccccc1)N1CCOCC1
-22	.	O=C(NCc1cccs1)C1c2ccccc2C(=O)N(C2CCCC2)C1c1cccs1 (stereo not drawn)
-21	.	CCCOC(=O)CN1C(=O)/C(=C/c2ccccc2)SC1=S
.	7.6	O=C(ON1C(=O)C2C3C=CC(O3)C2C1=O)c1cccnc1Oc1ccccc1 (stereo not drawn)

Further structures follow:
S aureus helic	MgrA-DNA mod	mol
-5&18	.	COc1ccccc1N1CCN(Cc2cc(Cl)c(O)c3ncccc23)CC1
20	-2.7	Cc1ccc(NC(=O)Cc2coc3ccc4ccccc4c23)nc1
-1	.	COc1ccc(C(=O)CSc2nnc(CN3CCCC3)o2)cc1F
.	3.0	COc1cc(NC(=O)c2nn3c(c2Br)NC(c2ccccc2)CC3C(F)(F)F)cc(OC)c1OC (stereo not drawn)
8	.	CC1(C)CC(OC(=O)CCC(=O)OC2CC(C)(C)NC(C)(C)C2)CC(C)(C)N1
9	2.6	COc1ccc(CNC(=O)CCn2c(=O)c3sccc3n(CC(=O)N3CCCCC3C)c2=O)cc1 (stereo not drawn)
.	0.3	N#Cc1cccc(C#N)c1Oc1ccc(S(=O)(=O)NCc2ccco2)cc1
13	0.0	Cn1c(=O)oc2cc(S(=O)(=O)N3CCC(C(=O)NCCc4ccc(Cl)cc4)CC3)ccc21
-1	0.1	CN1CCN(C(=S)SCC(=O)N2CCCc3ccccc32)CC1
.	-6.2	O=C(O)/C=C/C(=O)Nc1ccccc1C(=O)O
8	.	O=C(COC(=O)/C=C/c1ccc2c(c1)OCO2)Nc1ccccc1
3	.	CC(C)(C)NCC(=O)Nc1ccc(F)cc1Cl
9	.	CCNC(=O)NCCC12CC3CC(CC(C3)C1)C2
.	-0.8&-3.5	O=C(O)CNC(=O)C(CS)Cc1ccccc1 (stereo not drawn)
14	.	O=C(c1ccc(CS(=O)(=O)c2ccc(C(F)(F)F)cn2)o1)N1CCOCC1
10	.	O=S1(=O)C=CC(c2ccccc2)C1 (stereo not drawn)
-13	.	O=C(/C=C/c1ccco1)NCC1(c2ccccc2)CCOCC1
.	0.5	N#Cc1ccc(CSc2ccc(Cl)cc2)cc1
.	2.8	O=C(O)c1cn(C2CCCCC2)c2ccccc2c1=O
0	.	CCCOc1ccccc1NC(=O)c1ccc(N)cc1
12	.	O=C(O)COc1ccc2occ(C(=O)c3cccs3)c2c1

Taken from above, 16 compounds:
S aureus helic	MgrA-DNA mod	mol
-5&18	.	COc1ccccc1N1CCN(Cc2cc(Cl)c(O)c3ncccc23)CC1
20	-2.7	Cc1ccc(NC(=O)Cc2coc3ccc4ccccc4c23)nc1
-1	.	COc1ccc(C(=O)CSc2nnc(CN3CCCC3)o2)cc1F
.	3.0	COc1cc(NC(=O)c2nn3c(c2Br)NC(c2ccccc2)CC3C(F)(F)F)cc(OC)c1OC (stereo not drawn)
8	.	CC1(C)CC(OC(=O)CCC(=O)OC2CC(C)(C)NC(C)(C)C2)CC(C)(C)N1
9	2.6	COc1ccc(CNC(=O)CCn2c(=O)c3sccc3n(CC(=O)N3CCCCC3C)c2=O)cc1 (stereo not drawn)
.	0.3	N#Cc1cccc(C#N)c1Oc1ccc(S(=O)(=O)NCc2ccco2)cc1
13	0.0	Cn1c(=O)oc2cc(S(=O)(=O)N3CCC(C(=O)NCCc4ccc(Cl)cc4)CC3)ccc21
-1	0.1	CN1CCN(C(=S)SCC(=O)N2CCCc3ccccc32)CC1
.	-6.2	O=C(O)/C=C/C(=O)Nc1ccccc1C(=O)O
8	.	O=C(COC(=O)/C=C/c1ccc2c(c1)OCO2)Nc1ccccc1
3	.	CC(C)(C)NCC(=O)Nc1ccc(F)cc1Cl
9	.	CCNC(=O)NCCC12CC3CC(CC(C3)C1)C2
.	-0.8&-3.5	O=C(O)CNC(=O)C(CS)Cc1ccccc1 (stereo not drawn)
14	.	O=C(c1ccc(CS(=O)(=O)c2ccc(C(F)(F)F)cn2)o1)N1CCOCC1
10	.	O=S1(=O)C=CC(c2ccccc2)C1 (stereo not drawn)

Screening data as filed in PubChem.
